# High-throughput results from PubChem.
# VDR inhibitor: blocks the human vitamin D receptor; P11473; VDR-SRC2-3 peptide fluorescence polarization, 2 h; Potency, µM, without a hit: max response, negative = inhibition, actives largely listed as inhibitors; 400,000 compounds, 0.93% hits; AID 504847; active means well fitted inhibition curve with a large enough effect; inconclusive means small, poorly fitted or top-dose-only effect, or another doubt; inactive means no such curve, though single readings can be large or run the other way; further: series mostly up to about 120 µM
# Target sequence (P11473 whole entry, looked up): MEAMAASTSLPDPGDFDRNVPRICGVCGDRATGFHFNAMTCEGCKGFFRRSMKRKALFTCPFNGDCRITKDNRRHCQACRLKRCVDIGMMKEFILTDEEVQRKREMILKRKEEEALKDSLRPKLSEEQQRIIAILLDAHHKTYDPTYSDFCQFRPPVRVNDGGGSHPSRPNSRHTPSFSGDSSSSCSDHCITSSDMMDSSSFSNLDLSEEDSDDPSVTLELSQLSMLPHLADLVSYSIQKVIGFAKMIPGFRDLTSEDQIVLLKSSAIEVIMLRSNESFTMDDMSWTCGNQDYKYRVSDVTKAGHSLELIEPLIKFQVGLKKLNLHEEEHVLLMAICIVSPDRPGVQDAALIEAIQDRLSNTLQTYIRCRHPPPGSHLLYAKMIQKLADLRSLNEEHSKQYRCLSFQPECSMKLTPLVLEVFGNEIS
#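 The screen uses fluorescence polarization to detect compounds that interfere with recruitment of the SRC2-3 coactivator peptide to VDR; plates are read after 2 h at room temperature.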
# The depositor's hits bear a star; ? = inconclusive; & = joins results of further samples. On the % scale 0 is the no-effect control and ±100 the full control effect; potency means the concentration at half of the fitted maximal effect. Only part of the results is shown; count on the stated rates, not on these rows.
SMILES,VDR inhibitor
CCCN1CCc2nc(N3CCN(c4ncccn4)CC3)ncc2C1,21%
CCC(C)C(=O)O[C@H]1C[C@@H](C)C=C2C=C[C@H](C)[C@H](CC[C@@H]3C[C@@H](O)CC(=O)O3)C21 (some centres undefined),?
CC1=C(c2ccc(C)cc2)S(=O)(=O)NC1=NCCCN1CCN(c2cc(C)ccc2C)CC1,-2%
CCC(C)(c1nnnn1-c1c(C)cccc1C)N(N=O)c1cccc(C(F)(F)F)c1 (centres undefined),-14%
CCc1cccc(C)c1NC(=O)CO/N=C(\N)CC(=O)NC1CCCCC1,-20%
CCOc1cccc(C(=O)Nc2cc(-c3nn4c(C)nnc4s3)ccc2C)c1,4%
CC(C)CCN1CCN(Cc2ccc3nsnc3c2)CC1CCO (centres undefined),-18%
COc1ccccc1-c1nc(C#N)c(NCc2ccc(F)cc2)o1,0%
CN(Cc1ccccc1)C(=O)CCC1CCN(S(=O)(=O)N(C)C)CC1,-8%
CCc1nnc(NC(=O)C2CCCN(S(=O)(=O)c3ccccc3)C2)s1 (centres undefined),4%
CC(OC(=O)C1CC1)C(=O)Nc1cc(Cl)cc(Cl)c1 (centres undefined),-18%
COC(=O)C1(Cc2cc(-c3ccc([N+](=O)[O-])cc3)no2)CCN(C(=O)OC(C)(C)C)CC1,-5%
COc1cc(NC(=S)Nc2ccc(S(=O)(=O)N3CCOCC3)cc2)cc(OC)c1OC,-18%
COC(=O)CSc1nc(-c2ccc(F)cc2)cc(C(F)(F)F)n1,-13%&16%
CCSc1nc2ccccc2c(=O)n1-c1c(C)n(C)n(-c2ccccc2)c1=O,10%
Cc1ccc(-c2nnc(SCC(=O)N3CCCC3)o2)cc1C,2%
CN(C)CCNC(=O)c1cccc2[nH]c(-c3ccncc3)nc12,-10%
CCN1CCN(C(=O)CCc2nnc(CCCCc3ccccc3)o2)[C@@H](C)C1=O,8%
Cc1cc(C)n(CC(=O)Nc2ccc(F)c(F)c2)c(=O)c1C#N,-7%
Cc1cc(C)c2c(=O)cc(C(=O)Nc3ccc(C)c(Cl)c3)oc2c1,-6%
O=C(NCCc1nccs1)C1CCC(=O)N(Cc2cccc(C(F)(F)F)c2)C1 (centres undefined),1%
CCCCC(=O)Nc1cc(-c2cn3cccnc3n2)ccc1C,-4%
Fc1ccccc1CSc1ncn[nH]1,-12%
Cc1cc(C(=O)Oc2ccccc2C(=O)O)c(C)o1,0%
COC(=O)CCCCCN1C(=O)NC(c2ccccc2)C(C(=O)OCc2ccccc2)=C1C (centres undefined),-26%
CCc1c(C)c2ccc(OC3CCCCC3=O)cc2oc1=O (centres undefined),6%
CCc1ccc(CN(C(=O)c2cc(=O)c3ccc(C)cc3o2)C2CCS(=O)(=O)C2)cc1 (centres undefined),8%
CCn1cc(C(=O)NCc2ccc(C)o2)c2cc(OC)c(OC)cc2c1=O,-16%
O=C(C[n+]1ccccc1)Nc1cc(C(F)(F)F)ccc1Cl,-7%
CCCC(=O)N1CCN(c2ccc(NC(=O)c3ccco3)cc2)CC1,6%
COC(=O)c1cc(CNC(=O)c2ccc(O)c(Cl)c2)ccc1OC,3%
O=C(COC(=O)COc1ccccc1)Nc1ccc2c(c1)OCCO2,1%
O=[N+]([O-])c1ccccc1NCc1c(O)ccc2ccccc12,-10%
CN(c1ccc(C(=O)N2CCOCC2)cc1[N+](=O)[O-])C1CCCCC1,-8%
O=C(CC1N=C2c3ccccc3N=C(SCc3ccc(F)cc3)N2C1=O)NCc1ccc2c(c1)OCO2 (centres undefined),1%
CC(=O)Nc1ccc(S(=O)(=O)NC2CC2)cc1,8%
CCOc1ccccc1C(=O)NC(C(=O)N(C)Cc1ccc2c(c1)OCO2)C(C)C (centres undefined),-8%
O=C(Nc1ccc([N+](=O)[O-])cc1)N1CCN(C(=O)C2CCCO2)CC1 (centres undefined),-13%
O=C1C=C(c2cccc(Cl)c2O)C[C@@H](c2ccc3c(c2)OCO3)C1,-6%
CC(C)N1C(=S)N(Cc2ccco2)C(=O)C1CC(=O)Nc1ccccc1 (centres undefined),-9%
CCOC(=O)c1c(S(=O)(=O)NCC2CCN(CCc3cccs3)CC2)c(C)n(C)c1C,6%
O=C(N/C(=C/c1cccnc1)C(=O)N1CCCCCC1)c1cccc(Br)c1,-15%
COc1ccc(NC(=O)CNS(=O)(=O)c2ccccc2)cc1Cl,-3%
O=C(CSc1nc(=O)n(CCCN2CCOCC2)c2c1CCCC2)Nc1ccc(F)cc1F,-12%
CC(C)c1ccc(NC(=O)N2c3ccccc3Sc3ccccc32)cc1,-10%
CCCC(=O)NC(=S)Nc1ccc(NC(=O)c2cccs2)cc1,7%
O=C(OCc1cncs1)c1cccs1,-2%
CCO[C@H]1OC(C(=O)N2CCN(Cc3ccc4c(c3)OCO4)CC2)=C[C@@H](c2csc3ccccc23)[C@@H]1CCCO,-11%
CC(C)(C)C(=O)Nc1sc2c(c1C(=O)Nc1ccccn1)CCCC2,-25%
Cc1ccc(C(O)(CCN2CCCCC2)c2ccccc2)cc1 (centres undefined),-19%
CC1(C)CC2(CCO1)C(Nc1ccccc1)=NC(=S)N2CC(N)=O (centres undefined),-4%
CCC(=O)c1ccc(OCCSc2ncccn2)cc1,-6%
Cc1ccc(N2C(=O)Nc3ccc(Br)cc3C2(O)C(=O)NCCN(C)C)cc1C (centres undefined),-7%
C=CCN1c2ccccc2C(=O)CS1(=O)=O,-8%
COc1ccc(-c2cc(=O)oc3cc(OCC(=O)NCC(O)c4ccccc4)ccc23)cc1 (centres undefined),-17%
O=C(CSc1nnc(-c2ccc(O)cc2)o1)Nc1cccc(O)c1,1%
CSC1=NCCN1C(=O)COc1ccccc1,2%
O=C(N/N=C/c1ccccn1)c1ccc(NC(=O)c2ccc(F)cc2)cc1,16%
CCOc1ccc(/C=C/C(O)=C2/C(=O)NC3(C)CC2c2ccccc2O3)cc1OC (centres undefined),-5%
CN(CCCN1CCOCC1)C(=O)c1cc(COc2cccc(C(F)(F)F)c2)on1,23%

# Other results follow:
SMILES,VDR inhibitor
CN(C(=O)CSc1nnc(-c2ccccc2)o1)c1c(N)n(Cc2ccccc2)c(=O)[nH]c1=O,0%
O=C(Nc1cc(S(=O)(=O)N2CCOCC2)ccc1N1CCCC1)c1cccnc1Cl,4%
O=C1CC(NNC(=O)c2ccccc2)C(=O)N1 (centres undefined),4%
COc1ccc(CCNC(=O)C(=O)c2cn(CC(=O)N3CCOCC3)c3ccccc23)cc1,-3%
C=CCNc1nc(C(=O)OCC(=O)c2cccc(Br)c2)cs1,-10%
Cc1cc(N2C(=O)C(O)=C(C(=O)c3cc4ccccc4o3)C2c2cccs2)no1 (centres undefined),-16%
CCOC(=O)C1(CC2CCCCO2)CCN(Cc2cn[nH]c2-c2cccc(F)c2)CC1 (centres undefined),-4%
O=c1[nH]c(-c2ccc(Cl)cc2)nc(=S)[nH]1,6%
COc1ccc(C2Nc3ccccc3C(=O)N2Cc2ccccc2)cc1COc1ccc([N+](=O)[O-])cc1 (centres undefined),-9%
COC(=O)c1cc2oc3ccccc3c2n1Cc1nc(-c2ccc(Cl)cc2)oc1C,-4%
CC(C)C(NC(=O)c1ccc(C(C)(C)C)cc1)C(=O)OCC(=O)NC(=O)Cc1ccccc1 (centres undefined),10%
COc1ccc(-c2ccc3c(c2)O/C(=C\c2ccsc2)C3=O)cn1,-27%
CC(=O)Nc1ccc(NC(=O)CSc2nnc(-c3cccs3)n2N)cc1,-13%
COC(=O)c1ccccc1NC(=O)c1ccc(-c2nc(COc3ccccc3)c(C)o2)cc1,1%
CCc1ccccc1NC(=O)N1CCC2(CC1)Oc1ccccc1C(=O)N2Cc1ccccc1F,2%
COc1ccccc1N=C1NC(=O)/C(=C/c2ccc(N(C)C)cc2)S1,-14%
COCc1nnc(NC(=O)c2cccc(NC(=O)C(C)C)c2)s1,-3%
CC1=C(C(=O)OCC2CCCO2)C(c2ccc(C)cc2)C2=C(CC(C)(C)CC2=O)N1 (centres undefined),13%
CN(c1ccccc1)S(=O)(=O)c1ccc(Cl)c(C(=O)Nc2nn[nH]n2)c1,-30%
O=C(O)C1C2C=CC(C2)C1C(=O)NCc1ccccc1F (centres undefined),-4%
CCCCOC(=O)Nc1ccc2c(C)cc(=O)oc2c1,0%
Cc1ccccc1CNC(=O)c1ccc2[nH]c(C)c(C)c2c1,6%
O=C(CN1C(=O)NC2(CCCc3ccccc32)C1=O)NC1CCCCC1 (centres undefined),3%
CCS(=O)(=O)N1CCCC(C(=O)NCCCOC)C1 (centres undefined),-2%
CCC(=O)c1ccc(OCC(=O)Nc2ccccc2C(=O)NC2CC2)cc1,-3%
Nc1c(/C=C2/C=CC(=O)C(O)=C2)c(=O)nc2sc(CC(=O)N3CCCCC3)nn12,15%
CCOc1cc(-c2c(C#N)c(=O)[nH]c3c2c(C)nn3-c2ccc(F)cc2)ccc1O,4%
Cc1onc(-c2c(Cl)cccc2Cl)c1C(=O)NCc1ccccn1,-3%
Cc1cccc(C)c1NC(=O)CSc1nnc(-c2ccco2)c(-c2ccco2)n1,?
Cn1nccc1C(=O)N/N=C/c1ccccc1[N+](=O)[O-],-8%
Cc1nc2sc(C(N)=O)c(N)c2c(C)c1CC(=O)c1ccccc1,3%
CCOC(=O)CSc1nnc(NCC(=O)OC(C)C)c(=O)[nH]1,-12%
COC(=O)C1=NN(C(=O)c2cccc(Cl)c2)C(O)(C(C)(C)C)C1 (centres undefined),2%
O=C(COc1ccc(-c2nnco2)cc1)Nc1cc([N+](=O)[O-])ccc1F,1%
Cc1ccc(Nc2nnc(-c3ccc(N4CCOCC4)c([N+](=O)[O-])c3)c3ccccc23)cc1,3%
CCCOP(=O)(c1ccc(N(C)C)cc1)C(O)c1ccncc1 (centres undefined),7%

# 17 consecutive compounds from above, for reference:
SMILES,VDR inhibitor
CC1=C(C(=O)OCC2CCCO2)C(c2ccc(C)cc2)C2=C(CC(C)(C)CC2=O)N1 (centres undefined),13%
CN(c1ccccc1)S(=O)(=O)c1ccc(Cl)c(C(=O)Nc2nn[nH]n2)c1,-30%
O=C(O)C1C2C=CC(C2)C1C(=O)NCc1ccccc1F (centres undefined),-4%
CCCCOC(=O)Nc1ccc2c(C)cc(=O)oc2c1,0%
Cc1ccccc1CNC(=O)c1ccc2[nH]c(C)c(C)c2c1,6%
O=C(CN1C(=O)NC2(CCCc3ccccc32)C1=O)NC1CCCCC1 (centres undefined),3%
CCS(=O)(=O)N1CCCC(C(=O)NCCCOC)C1 (centres undefined),-2%
CCC(=O)c1ccc(OCC(=O)Nc2ccccc2C(=O)NC2CC2)cc1,-3%
Nc1c(/C=C2/C=CC(=O)C(O)=C2)c(=O)nc2sc(CC(=O)N3CCCCC3)nn12,15%
CCOc1cc(-c2c(C#N)c(=O)[nH]c3c2c(C)nn3-c2ccc(F)cc2)ccc1O,4%
Cc1onc(-c2c(Cl)cccc2Cl)c1C(=O)NCc1ccccn1,-3%
Cc1cccc(C)c1NC(=O)CSc1nnc(-c2ccco2)c(-c2ccco2)n1,?
Cn1nccc1C(=O)N/N=C/c1ccccc1[N+](=O)[O-],-8%
Cc1nc2sc(C(N)=O)c(N)c2c(C)c1CC(=O)c1ccccc1,3%
CCOC(=O)CSc1nnc(NCC(=O)OC(C)C)c(=O)[nH]1,-12%
COC(=O)C1=NN(C(=O)c2cccc(Cl)c2)C(O)(C(C)(C)C)C1 (centres undefined),2%
O=C(COc1ccc(-c2nnco2)cc1)Nc1cc([N+](=O)[O-])ccc1F,1%

# New compounds follow:
SMILES,VDR inhibitor
CC(C)=CCc1c(O)ccc2c1OC(c1ccc(O)c(O)c1)CC2=O (centres undefined),-13%
O=C(Nc1nncs1)c1cccc(S(=O)(=O)N2CCCCC2)c1,?
CC(=O)NCCc1ccc(C(=O)Cn2cnc3ccccc3c2=O)cc1,-14%
CC(C)(C)OC(=O)N1CCC(c2c(C(=O)NC3CC3)cnn2-c2ccc(Cl)cc2)CC1,-1%
O=C(C1CCCN(C2CC(=O)N(c3ccc(F)cc3)C2=O)C1)N1CCCC1 (centres undefined),-10%
CCCC(=O)N/C(N)=N/c1nc2ccccc2o1,-1%
COC(=O)c1ccc(NC(CC(C)C)C(=O)OC)c([N+](=O)[O-])c1 (centres undefined),-5%
O=C(COc1ccccc1F)Nc1ccc2nc(SCC(=O)N3CCOCC3)sc2c1,12%
Cc1cc(C)c(NC(=O)CCC(=O)N2Cc3ccccc3Oc3ncccc32)c(C)c1,8%
O=C(CCNC(=O)c1ccc([N+](=O)[O-])cc1)Nc1ccccc1N1CCCCC1,5%
FC(F)(F)c1cccc(Cn2nnnc2-c2cc(Cl)cc(Cl)c2)c1,2%
O=C(N1CCN(S(=O)(=O)c2ccc(Cl)cc2)CC1)n1ccnc1,0%
CC(C)(C(O)c1ccc([N+](=O)[O-])cc1)[N+](=O)[O-] (centres undefined),-5%
O=C(Nc1cc(S(=O)(=O)N2CCOCC2)ccc1Cl)C1CCC1,-8%
COc1ccc(C(C)=O)cc1CN1C(=O)NC(c2ccccc2)(c2ccccc2)C1=O,-25%
CN1CCN(S(=O)(=O)c2ccc(Oc3ccc(F)cc3Br)nc2)CC1,9%
Cc1cc(NS(=O)(=O)c2ccc(NC(=O)c3cccc(OC(F)F)c3)cc2)nc(C)n1,1%
CCOc1ccccc1CNC(=O)c1cnc2sc(N(CC)CC)nn2c1=O,3%
O=C(Cc1ccccc1F)NC1CCCc2ccccc21 (centres undefined),3%
Cc1ccc(-c2ccc(=O)n(CC(=O)NCc3ccco3)n2)cc1,-2%
COC(=O)c1nc2n(n1)C(c1ccccc1OC)C1=C(CCCC1=O)N2 (centres undefined),-4%
Cc1ccccc1NC(=O)CN(C)S(=O)(=O)c1ccc2c(c1)n(C)c(=O)c(=O)n2C,-2%
CN(CC(=O)Oc1ccc(-c2nnco2)cc1)S(=O)(=O)c1ccc(F)cc1,-12%
Cc1ccc2c(c1)C1CN(C)CCC1N2C(=O)c1ccccc1NS(=O)(=O)c1cccc(C(F)(F)F)c1 (centres undefined),3%
CCOc1ccc(C(=O)O/N=C(\N)c2ccc([N+](=O)[O-])cc2)cc1OCC,-12%
